gsp antagonist – antagonists of gsp mutant (McCune-Albright syndrome); gsp-mutant cells, cAMP HTRF, 30 min; control for the full effect not named in the record; Potency, µM (titrated, usually from 76.9 µM), for inactives: at the top dose activity change, negative = inhibition, usual class: inhibitors; hit rate 0.4% among 340,000; active = falling curve of any shape with a large fitted effect; inconclusive = falling curve, mostly with a smaller effect; inactive = flat or rising curve; cell line not stated here;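 further: intracellular cAMP measured with PDE inhibitor Ro 20-1724 present during compound exposure; potency means the concentration at half of the fitted maximal effect; on the % scale 0 is the no-effect control and ±100 the full control effect; nearly all actives have a fitted effect of over 65% in size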
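HTRF cAMP read-out (cAMP-d2 plus anti-cAMP antibody-K in lysis buffer, 30 min RT). Before lysis, cells are exposed to compounds with […] for 30 min at 37C in DPBS containing Ca/Mg, BSA and Tween 20.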
D2 potentiator – potentiates the human D2 dopamine receptor allosterically | P14416 | DiscoveRx D2 beta-arrestin cells, luminescence, 90 min; 100% = 57 uM dopamine signal | potentiation, % (test concentration not listed) | hit rate 0.23% among 360,000 | AID 624464; active = potentiation of 50% or more; inconclusive = 30% to 50%; inactive = 30% or less;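 further: compound concentration not given in the record; tested on top of an EC20 dose of dopamine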
Target sequence (P14416 whole entry, looked up): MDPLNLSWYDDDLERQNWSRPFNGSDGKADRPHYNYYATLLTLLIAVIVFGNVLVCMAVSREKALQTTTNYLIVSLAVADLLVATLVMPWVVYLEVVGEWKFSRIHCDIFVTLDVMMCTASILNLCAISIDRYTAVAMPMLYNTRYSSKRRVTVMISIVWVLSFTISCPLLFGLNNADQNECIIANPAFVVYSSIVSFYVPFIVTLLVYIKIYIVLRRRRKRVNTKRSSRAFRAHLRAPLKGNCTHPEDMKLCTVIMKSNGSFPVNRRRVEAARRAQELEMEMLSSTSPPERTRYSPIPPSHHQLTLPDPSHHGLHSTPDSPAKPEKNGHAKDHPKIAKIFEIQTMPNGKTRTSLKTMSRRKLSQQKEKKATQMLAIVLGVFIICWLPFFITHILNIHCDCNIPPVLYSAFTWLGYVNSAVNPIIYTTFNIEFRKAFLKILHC
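PathHunter D2 cells, attached overnight at 37 deg C, received compound in DMSO plus dopamine at EC20 (50 nM final) for 90 min at 37 deg C. Beta-arrestin recruitment was read as luminescence after 1 h with detection reagent at ambient temperature.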
gsp ag – agonists of gsp mutant (McCune-Albright syndrome); Potency, µM (highest dose often 76.9 µM), for the others: at the top dose activation (cAMP increase), actives largely listed as activators; hit rate 0.13% among 340,000; gsp mutant cells, cAMP HTRF, 30 min; control for the full effect not named in the record; active = well fitted activation curve with a large enough effect; inconclusive = small, poorly fitted or top-dose-only effect, or another doubt; inactive = no such curve, though single readings can be large or run the other way; cell line not stated here;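 further: phosphodiesterase inhibitor Ro 20-1724 added with compounds to block cAMP breakdown; potency means the concentration at half of the fitted maximal effect; nearly all actives have a fitted effect of over 60% in size; about a fifth of the inactives were tested at one dose only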
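Cells in DMEM/10% FBS with G418 were pretreated with compounds in DMSO plus […] (300 uM stock) for 30 min at 37C. cAMP was measured by HTRF (cAMP-d2 plus anti-cAMP antibody-K) after 30 min at room temperature.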
TRPV1 potentiator – potentiators of human vanilloid receptor 1 (TRPV1); potentiation, % at 8.33 µM; TRPV1-expressing cells, Fluo-8 calcium influx, capsaicin EC20 potentiation; host cell line not named in the record; control for the full effect not named in the record; AID 540277; hit rate 0.02% among 320,000; Q8NER1; active means potentiation above 80%; inconclusive means 30% to 80%; inactive means below 30%; further: 0% is about no effect
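Cells expressing TRPV1 were dye-loaded with Fluo-8 and read kinetically: 10 s baseline, 3 min after compound (agonist portion), then 2 min after EC20 capsaicin (allosteric enhancer portion). Calcium-bound dye fluorescence at 480/520 nm.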
ClpP mod – qHTS Assay for Activators of ClpP. hit rate 1.9% among 340,000. purified B. subtilis ClpP, FRET peptide cleavage, 20 min. Potency, µM (series often up to 57.5 µM), for the others: top-dose activity change, negative = active. ATP-dependent Clp protease proteolytic subunit (Bacillus subtilis (strain 168)), P80244; active = well fitted falling curve with a large enough effect; inconclusive = small, poorly fitted or top-dose-only effect; inactive = no such curve, though single readings can be large or run the other way; further: potency means the concentration at half of the fitted maximal effect; the source files actives as falling curves though it sought activators and does not explain the sign; nearly all actives have a fitted effect of over 65% in size; many hits overshoot -100%
Target sequence (P80244 whole entry, looked up): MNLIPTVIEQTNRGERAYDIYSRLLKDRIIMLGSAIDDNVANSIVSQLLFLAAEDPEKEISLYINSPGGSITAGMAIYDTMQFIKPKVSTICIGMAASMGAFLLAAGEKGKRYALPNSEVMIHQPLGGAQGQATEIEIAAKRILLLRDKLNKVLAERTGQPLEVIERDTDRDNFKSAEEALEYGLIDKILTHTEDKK
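Purified B. subtilis ClpP, 10 microg/mL final in Tris/HCl pH8 with KCl, BSA, glycerol and Tween-20, cleaved an Abz/nitrotyrosine-quenched decapeptide. Fluorescence (ex 320, em 430) was read at 0 and 20 min at room temperature. Delta was normalized to 5.8 microM ADEP and DMSO/no-enzyme controls.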
Sfp PPTase inh – Sfp phosphopantetheinyl transferase inhibition. Biochemical Sfp PPTase activity, qHTS. Potency, µM, inactives show max response, negative = inhibition, usual class: inhibitors. hit rate 3.5% among 310,000; active means well fitted inhibition curve with a large enough effect; inconclusive means small, poorly fitted or top-dose-only effect, or another doubt; inactive means no such curve, though single readings can be large or run the other way;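 further: the enzyme is Sfp with the accession as filed and its product quenches rhodamine fluorescence; potency means the concentration at half of the fitted maximal effect; 0% = enzyme reaction without inhibitor and -100% = no enzyme wells; top concentration of the series not given in the record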
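Compounds were incubated with enzyme (final 15 nM) for 15 min at room temperature before substrate addition started the reaction. Fluorescence at 525 nm excitation, 598 nm emission was recorded immediately and after 30 minutes.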
Menin MLL FP FL – displaces fluorescein MLL peptide from human menin. Fluorescence polarization, fluorescein-MLL peptide displacement from menin. FP activity change, % at 61.4 µM. 290,000 tested, under 10 active; inconclusive = falling polarisation curve, or a change in total fluorescence; inactive = total fluorescence flat and polarisation flat or rising; no compound was filed as active; the % refers to the polarisation; negative = inhibition;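 further: % of control where 0% means no effect; inhibitors lower the polarisation; unlabelled MLL peptide was the positive control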
Active calls of the source: *; & = joins results of further samples; [ ] = dose if it differs, or a comment.

Results for CC(=O)c1ccccc1NC(=O)COC(=O)C1=NN(c2ccccc2)C(=O)CC1 ?
gsp antagonist: 0%; D2 potentiator: -7; gsp ag: -2%[15.4 µM]; TRPV1 potentiator: -9

Results for COC(=O)c1ccc(N2CCC(c3cc(-c4ccc(OC)cc4)n[nH]3)CC2)c([N+](=O)[O-])c1 ?
gsp antagonist: inconclusive; D2 potentiator: -2; gsp ag: 5%; TRPV1 potentiator: 3; ClpP mod: 0.2%; Sfp PPTase inh: inconclusive; Menin MLL FP FL: 1.6

Results for NC(=O)CN1C(=O)C(=O)N(Cc2ccccc2Cl)C1=O ?
gsp antagonist: -1%; D2 potentiator: -9; gsp ag: 26%; TRPV1 potentiator: -12; ClpP mod: -3.3%; Sfp PPTase inh: 5%; Menin MLL FP FL: 1.7

Results for CSCCC(NC(=O)C1CCC(C)CC1)C(=O)NCCN1CCC(C)CC1 (stereo not given) ?
gsp antagonist: 14%; D2 potentiator: -15; gsp ag: 3%; TRPV1 potentiator: -1; Sfp PPTase inh: 13%; Menin MLL FP FL: -0.4

What do the screens show for `N#Cc1cc(C(=O)c2ccccc2OCC(=O)Nc2ccccc2Cl)cn(C2CCCCC2)c1=O`?
gsp antagonist: -6%; D2 potentiator: -17; gsp ag: 2%; TRPV1 potentiator: -12; ClpP mod: 3.6%; Sfp PPTase inh: 15%; Menin MLL FP FL: -5.0

How did COc1ccc(C2C(C#N)=C(N)Oc3cc(C)[nH]c(=O)c32)c(OC)c1OC (stereo not given) do in these assays?
gsp antagonist: 0%; D2 potentiator: 0; gsp ag: inconclusive; TRPV1 potentiator: 10; ClpP mod: -1.5%; Sfp PPTase inh: 12%; Menin MLL FP FL: 3.3

Results for Cc1ccc(NCC(=O)Nc2cccc(F)c2)cc1S(=O)(=O)N1CCCCCC1 ?
gsp antagonist: -15%; D2 potentiator: 4; gsp ag: 20%[15.4 µM]; TRPV1 potentiator: 3; Sfp PPTase inh: 5%

How did Fc1ccc(-n2c(CN3CCCCC3)n[nH]c2=S)cc1 do in these assays?
gsp antagonist: 0%; D2 potentiator: -3; gsp ag: 5%[15.4 µM]; TRPV1 potentiator: 6; Sfp PPTase inh: -13%; Menin MLL FP FL: 1.5

What do the screens show for `O=C(COC(=O)c1cccc(-n2cnnn2)c1)c1ccc(Br)cc1`?
gsp antagonist: inconclusive; D2 potentiator: 3; gsp ag: -2%[15.4 µM]; TRPV1 potentiator: 10

How did O=S1(=O)N=C(N2CCCC2)c2ccccc21 do in these assays?
gsp antagonist: 12%; D2 potentiator: -5; gsp ag: 5%[15.4 µM]; TRPV1 potentiator: 9; ClpP mod: 0.8%; Sfp PPTase inh: 15%; Menin MLL FP FL: -3.5

Results for COCCCNC(=O)CN(c1ccc(OC)cc1)S(=O)(=O)c1ccc(NC(C)=O)cc1 ?
gsp antagonist: -1%; D2 potentiator: -10; gsp ag: -11%; TRPV1 potentiator: 1; ClpP mod: -1.2%; Sfp PPTase inh: 8%; Menin MLL FP FL: -2.6

How did Cc1ccc2nc(CCCc3nc4ccc(C)cc4[nH]3)[nH]c2c1 do in these assays?
gsp antagonist: 0%; D2 potentiator: -28; gsp ag: -3%; TRPV1 potentiator: 5; Sfp PPTase inh: 3%; Menin MLL FP FL: -3.1

How did C/C(Cl)=C/Cn1c(SCC(C)C)nc2c1c(=O)[nH]c(=O)n2C do in these assays?
gsp antagonist: 1%; D2 potentiator: 7; gsp ag: -18%; TRPV1 potentiator: -2; ClpP mod: 0.8%; Sfp PPTase inh: -15%; Menin MLL FP FL: -0.5

Results for CC(=O)c1ccc(O)c(CC=C(C)C)c1O ?
gsp antagonist: 12%; D2 potentiator: -15; ClpP mod: -10%

What do the screens show for `CCN(C(=O)CN(C)Cc1cccc(Cl)c1Cl)c1c(N)n(Cc2ccccc2)c(=O)[nH]c1=O`?
gsp antagonist: 9%; D2 potentiator: 9; gsp ag: 2%[15.4 µM]; TRPV1 potentiator: 0; ClpP mod: 2.0%; Sfp PPTase inh: 4%; Menin MLL FP FL: 0.7

What do the screens show for `O=C(O)c1ccc(CSC2CCCCC2)cc1`?
gsp antagonist: 7%; D2 potentiator: -8; gsp ag: -44%[inhibitor][15.4 µM]; TRPV1 potentiator: 11; Sfp PPTase inh: 1%; Menin MLL FP FL: 3.7

What do the screens show for `CCCCNC(=O)CC1N=C2c3ccccc3N=C(SCC(=O)Nc3ccccc3OC)N2C1=O` (stereo not given)?
gsp antagonist: 5%; D2 potentiator: -1; gsp ag: 17%; TRPV1 potentiator: 8; ClpP mod: -4.7%; Sfp PPTase inh: 2%; Menin MLL FP FL: 1.1

What do the screens show for `COc1ccc(NC(=O)C/C(C)=N/NC(=O)c2ccco2)c([N+](=O)[O-])c1`?
gsp antagonist: 3%; D2 potentiator: 1; gsp ag: inconclusive; TRPV1 potentiator: 4; Sfp PPTase inh: -2%; Menin MLL FP FL: 0.0

Results for Clc1ccc(-c2nc(-c3cc4cc(Cl)ccc4o3)cs2)cc1 ?
gsp antagonist: 28µM*; D2 potentiator: -5; gsp ag: -8%; TRPV1 potentiator: -1; ClpP mod: -3.9%; Sfp PPTase inh: 21%; Menin MLL FP FL: 5.9

How did O=C(O)C1=C[C@@H](C2CC2)C[C@@H](OCc2ccc(CO)cc2)O1 do in these assays?
gsp antagonist: 10%; D2 potentiator: -7; TRPV1 potentiator: 23; ClpP mod: 0.9%; Sfp PPTase inh: 10%; Menin MLL FP FL: -0.5

What do the screens show for `O=C(c1cccnc1)N1CCN(S(=O)(=O)c2ccc(F)cc2)CC1`?
D2 potentiator: -11; gsp ag: -2%[15.4 µM]; TRPV1 potentiator: 7; Sfp PPTase inh: -17%; Menin MLL FP FL: 4.9

What do the screens show for `COc1ccc(CCNC(=O)CCS(=O)(=O)c2ccc(Br)cc2)cc1OC`?
gsp antagonist: 3%; D2 potentiator: -3; gsp ag: -45%[inhibitor]; TRPV1 potentiator: 1; ClpP mod: 0.1%; Sfp PPTase inh: 14%; Menin MLL FP FL: -1.7

How did COc1ccc(S(=O)(=O)N2CCC(C(=O)NCCC(=O)NCc3ccccc3OC)CC2)cc1 do in these assays?
gsp antagonist: 32µM*; D2 potentiator: -6; gsp ag: 1%; TRPV1 potentiator: -6; ClpP mod: 1.8%; Sfp PPTase inh: 19%

Results for COc1cc(CN2CCC(n3nccc3NC(=O)C3CC3)CC2)cc(OC)c1 ?
gsp antagonist: 9%; D2 potentiator: -10; gsp ag: 3%; TRPV1 potentiator: -6; ClpP mod: -0.4%; Sfp PPTase inh: 10%; Menin MLL FP FL: -0.2

What do the screens show for `Fc1ccc(/C=N/Nc2cc(N3CCOCC3)ncn2)cc1`?
gsp antagonist: -4%; D2 potentiator: -5; gsp ag: -3%; TRPV1 potentiator: -20; Sfp PPTase inh: 0%; Menin MLL FP FL: -3.5

What do the screens show for `CCc1c(C(=O)NCc2ccccc2Cl)[nH]c(C)c1C(C)=O`?
gsp antagonist: -9%; D2 potentiator: -29; gsp ag: -6%; TRPV1 potentiator: -2; ClpP mod: 0.8%; Sfp PPTase inh: 12%; Menin MLL FP FL: 9.7

How did Cn1cccc1CNC(=O)Nc1ccc(Cl)cc1 do in these assays?
gsp antagonist: 5%; D2 potentiator: -25; gsp ag: 24%; TRPV1 potentiator: -21; ClpP mod: -1.3%; Sfp PPTase inh: 4%; Menin MLL FP FL: 5.4

Results for Brc1[nH]nc2ccccc12 ?
gsp antagonist: 8%; D2 potentiator: -3; gsp ag: -59%[inhibitor]; TRPV1 potentiator: 5; ClpP mod: 0.6%; Sfp PPTase inh: 27%; Menin MLL FP FL: -2.5

Results for COc1ccc(C2CC(=O)Oc3cc(C)cc(C)c32)cc1 (stereo not given) ?
gsp antagonist: 13%; D2 potentiator: 3; ClpP mod: -0.1%; Sfp PPTase inh: -23%; Menin MLL FP FL: 1.0[94.6 µM]

Results for CCCn1c(O)c(C=Nc2ccccc2)sc1=S ?
gsp antagonist: -20%; D2 potentiator: -8; gsp ag: 36%[15.4 µM]; TRPV1 potentiator: -14; Sfp PPTase inh: 8%; Menin MLL FP FL: 10

What do the screens show for `CC(C(=O)NCCc1ccccc1)N1c2cccc3cccc(c23)S1(=O)=O` (stereo not given)?
gsp antagonist: -13%; D2 potentiator: 10; gsp ag: 30%; TRPV1 potentiator: 6; ClpP mod: -12%; Sfp PPTase inh: -5%

What do the screens show for `COc1cc(-c2noc(C)c2C#Cc2ccc(N)cc2)cc(OC)c1OC`?
gsp antagonist: 22%; D2 potentiator: 0; gsp ag: -3%; TRPV1 potentiator: 21; ClpP mod: -1.8%&-2.3%; Sfp PPTase inh: 9%; Menin MLL FP FL: -2.5

What do the screens show for `O=C1/C(=C/c2cccs2)SC(=S)N1c1ccccc1`?
gsp antagonist: -1%; D2 potentiator: 12; gsp ag: 4%; TRPV1 potentiator: -2; ClpP mod: 1.0%; Sfp PPTase inh: 11%; Menin MLL FP FL: -7.9

Results for CC1(C)CC2(CCCN(CC(O)(c3ccccc3)c3ccccc3)C2)CCO1 (stereo not given) ?
gsp antagonist: -7%; D2 potentiator: -3; gsp ag: 1%[15.4 µM]; TRPV1 potentiator: -4; Sfp PPTase inh: -2%; Menin MLL FP FL: -0.8

Results for O=C(Nc1ccc2c(c1)OCO2)c1ccc(Cl)nc1 ?
gsp antagonist: -3%; D2 potentiator: -14; gsp ag: 2%; TRPV1 potentiator: -26; ClpP mod: -2.0%; Sfp PPTase inh: 14%; Menin MLL FP FL: -0.4

Results for O=C(CCNC(=O)c1ccccc1)OCN1C(=O)c2ccccc2C1=O ?
gsp antagonist: 17%; D2 potentiator: -2; gsp ag: -34%[inhibitor]; TRPV1 potentiator: 1; ClpP mod: 1.1%; Sfp PPTase inh: 18%; Menin MLL FP FL: 3.3

Results for Cc1ccc(C(c2nnnn2CC2CCCO2)N2CCN(C(=O)c3ccco3)CC2)cc1 (stereo not given) ?
gsp antagonist: -11%; D2 potentiator: -4; gsp ag: -22%; TRPV1 potentiator: 1; ClpP mod: -0.7%; Sfp PPTase inh: 10%; Menin MLL FP FL: 8.9

How did Cc1cc(C)c(NC(=O)CCCn2c(=O)oc3ccccc32)c(C)c1 do in these assays?
gsp antagonist: 6%; D2 potentiator: -1; gsp ag: 19%; TRPV1 potentiator: 1; ClpP mod: -1.2%

What do the screens show for `Cn1nc(C(=O)Nc2ccc(Cl)c(S(=O)(=O)N3CCOCC3)c2)c2ccccc2c1=O`?
gsp antagonist: -3%; D2 potentiator: 9; gsp ag: 9%; TRPV1 potentiator: 6; ClpP mod: 1.0%

Bioassay records from PubChem BioAssay.
